Screens from PubChem.
TRPML1 blocker – qHTS for Inhibitors of the Human Mucolipin Transient Receptor Potential 1 (TRPML1); AID 624415, 2012; activity change, negative = inhibition, % (test concentration not listed); 0.02% of 390,000 active; Mucolipin-1 (Homo sapiens), Q9GZU1; TRPML1-inducible cells, Ca2+ dye fluorescence, FDSS; hits give low values; inhibition of EC80 agonist-evoked calcium signal; in the data active means activity change below about -50%; inconclusive means about -30% to -50%; inactive means above about -30%;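 note: stimulus is agonist 54-4 at its EC80 concentration; % is set by controls: 0 for no effect and ±100 for the full control effect; compound concentration not given in the record; the text of the record puts the active cut at -80%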
Target sequence (Q9GZU1 whole entry, looked up): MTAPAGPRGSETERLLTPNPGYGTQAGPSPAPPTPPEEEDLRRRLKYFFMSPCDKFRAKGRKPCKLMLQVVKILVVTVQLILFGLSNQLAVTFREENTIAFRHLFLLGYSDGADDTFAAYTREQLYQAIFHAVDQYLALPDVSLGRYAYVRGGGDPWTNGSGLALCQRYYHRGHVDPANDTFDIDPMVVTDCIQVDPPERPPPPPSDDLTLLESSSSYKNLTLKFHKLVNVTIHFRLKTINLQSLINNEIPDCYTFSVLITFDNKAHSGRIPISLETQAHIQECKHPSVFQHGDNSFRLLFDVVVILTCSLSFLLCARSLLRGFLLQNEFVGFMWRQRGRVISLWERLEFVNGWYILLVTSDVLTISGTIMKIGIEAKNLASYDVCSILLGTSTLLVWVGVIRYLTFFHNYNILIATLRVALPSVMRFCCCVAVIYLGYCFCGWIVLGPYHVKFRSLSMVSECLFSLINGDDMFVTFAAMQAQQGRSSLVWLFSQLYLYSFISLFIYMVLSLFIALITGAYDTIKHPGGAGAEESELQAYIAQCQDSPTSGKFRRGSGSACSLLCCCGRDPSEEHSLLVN
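Tet-induced TRPML1-DL cells loaded with Ca8 no-wash calcium dye were read kinetically on FDSS. Compound addition was followed by EC80 agonist 54-4 (4 uM final); inhibition was read over 110 s.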
Six1-Eya2 blk – qHTS Assay for Inhibitors of the Six1/Eya2 Interaction. Homeobox protein SIX1 (Homo sapiens) + Protein phosphatase EYA2 (Homo sapiens), …. AlphaScreen GST-Six1/His-Eya2 binding, biochemical; hits give low values; control for the full effect not named in the record. activity change, % (concentration not given with the values). 0.56% of 360,000 active. AID 651725, 2012; in the data active = activity change below about -65%; inconclusive = about -30% to -65%; inactive = above about -30%; note: % is set by controls: 0 for no effect and ±100 for the full control effect
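Compounds are tested against tagged Six1 and Eya2 proteins bridged by glutathione donor and nickel acceptor beads; after a one-hour incubation at 37 °C without light, AlphaScreen emission is recorded.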
TRPV1 potentiator – HTS Assay for Compounds that Act as Potentiators of the Vanilloid Receptor 1 | Transient receptor potential cation channel subfamily V member 1 (Homo sapiens), Q8NER1 | potentiation, % at 8.33 µM | TRPV1-expressing cells, Fluo-8 calcium influx, capsaicin EC20 potentiation; host cell line not named in the record; control for the full effect not named in the record | 0.02% of 320,000 active | AID 540277, 2011; active means potentiation above 80%; inconclusive means 30% to 80%; inactive means below 30%; note: 0% is about no effect
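TRPV1-expressing cells were cultured overnight at 35.5C and loaded with Fluo-8 calcium dye for 40 to 90 min at room temperature. After a 10 s baseline, compound was added and calcium influx was read kinetically for 3 min (ex 480/em 520 nm).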
D2 PAM – Beta-Arrestin HTS for Positive Allosteric Modulators of the Human D2 Dopamine Receptor: Potentiators; D(2) dopamine receptor (Homo sapiens), P14416; DiscoveRx D2 beta-arrestin cells, luminescence, 90 min; 100% = 57 uM dopamine signal; potentiation, % (test concentration not listed); 0.23% of 360,000 active; active = potentiation of 50% or more; inconclusive = 30% to 50%; inactive = 30% or less;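 note: compound concentration not given in the record; tested on top of an EC20 dose of dopamine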
Target sequence (P14416 whole entry, looked up): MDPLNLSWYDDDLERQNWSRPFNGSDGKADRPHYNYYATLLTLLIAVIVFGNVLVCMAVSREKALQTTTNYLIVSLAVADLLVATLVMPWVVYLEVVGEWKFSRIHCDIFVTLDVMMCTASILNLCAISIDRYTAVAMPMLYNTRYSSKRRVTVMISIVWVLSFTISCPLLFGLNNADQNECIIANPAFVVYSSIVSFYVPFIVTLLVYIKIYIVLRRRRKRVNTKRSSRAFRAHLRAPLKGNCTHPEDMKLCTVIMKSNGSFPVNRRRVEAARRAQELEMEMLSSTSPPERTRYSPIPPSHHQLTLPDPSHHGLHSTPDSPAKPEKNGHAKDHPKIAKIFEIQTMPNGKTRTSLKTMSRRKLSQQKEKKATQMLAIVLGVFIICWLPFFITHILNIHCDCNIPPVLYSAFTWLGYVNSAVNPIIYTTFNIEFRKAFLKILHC
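D2 cells co-treated with compound plus 50 nM dopamine (EC20) for 90 min at 37 deg C to detect potentiation. Beta-arrestin recruitment was read as enzyme-fragment luminescence after 1 h at ambient temperature. Full response was set by 57 uM dopamine.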
CtBP-E1A blk – qHTS Assay for Inhibitors of the CtBP/E1A Interaction. CtBP / adenovirus E1A interaction (AlphaScreen). AID 651724, 2012. AlphaScreen GST-E1A/His-CtBP binding, 1536-well; hits give low values; control for the full effect not named in the record. 0.49% of 340,000 active. activity change, % (test concentration not listed); in the data active means activity change below about -65%; inconclusive means about -30% to -65%; inactive means above about -30%; note: % is set by controls: 0 for no effect and ±100 for the full control effect; compound concentration not given in the record
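GST-E1A and His-tagged CtBP (125 nM each as 5X stock) were preincubated with pin-transferred compound for 2 h at 37 °C in the dark, then glutathione donor and nickel acceptor beads were added for 1 h before AlphaScreen reading.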
TRPML1 ag – qHTS for Agonists of the Human Mucolipin Transient Receptor Potential 1 (TRPML1); AID 624414, 2012; Mucolipin-1 (Homo sapiens), Q9GZU1; 0.12% of 410,000 active; activation, % (concentration not given with the values); TRPML1-expressing cells, Ca2+ dye fluorescence, FDSS; host cell line not named in the record; reference of the full effect not given here; in the data active = activation above about 50%; inconclusive = about 30% to 50%; inactive = below about 30%; note: 0% is about no effect; the text of the record puts the active cut at 80%
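Cells: TRPML1-DL, 1X Tet inducer, ~16 h at 37 degrees C/5% CO2. Dye: ABD Ca8 no-wash + quencher, 45-90 min RT. Read: 10 s baseline, compound add, 110 s agonist phase; 54-4 EC80 (4uM final), 110 s antagonist phase.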
* hit, by the source's call; ? = inconclusive; . = not tested or not shown; & = joins results of further samples.

Molecule	D2 PAM	TRPML1 ag	TRPML1 blocker	TRPV1 potentiator	CtBP-E1A blk	Six1-Eya2 blk
COc1cc(/C=C2\SC(=O)N(CC(=O)Nc3cccc(C)c3)C2=O)ccc1OC(C)C(=O)O (configuration not stated)	-5	0.2	39	.	-5	-11
O=C(c1ccc(O)cc1)c1ccc(C(=O)O)c(C(=O)O)c1	-13	-0.4	-7	-5	3	0
CCN(c1ccc(OCC(=O)OCC(=O)c2c(N)n(C)c(=O)n(C)c2=O)cc1)S(=O)(=O)c1ccccc1	-3	0.3	3	13	7	0
COC(=O)C1=CN(c2ccc(OC)cc2)C=C(C(=O)OC)C1c1ccc([N+](=O)[O-])cc1	2	1.6	22	3	-5	-3
O=C(c1ccc2c(c1)OCO2)C1CCCN(Cc2cn[nH]c2-c2cccc(F)c2)C1 (configuration not stated)	-7	0.0	-12	-4	-3	-1
CC1CC(NC(=O)N(C)C)N(C)C(=O)N1 (configuration not stated)	-7	-0.3	-17	14	9	6
Cc1cc(N2CCCC2)nc(SCC(=O)c2ccccc2)n1	-12	-0.7	5	5	-4	11
CCOc1ccc(C(=O)Nc2cccc(-c3cc4ccccc4oc3=O)c2)cc1[N+](=O)[O-]	-1	-0.6	-4	4	-1	-1
CC1=C(C(=O)N2CCOCC2)CC(CC(=O)NC2CCCCC2)C(=O)N1Cc1ccc(F)cc1 (configuration not stated)	1	-0.2	-9	.	5	14
CCn1c(C)nc2cc(C(=O)N/N=C/c3cccc(OC)c3O)ccc21	-3	-0.3	-3	17	-93*	-80*
COc1ccc(NC(=O)COC(=O)C2CC2)c(OC)c1	-2	-0.3	-10	26	.	0
CCCS(=O)(=O)N1CCN(C(=O)c2cccs2)CC1	-5	1.9	6	2	24	6
CC(=O)N1CCc2cc(S(=O)(=O)N3CCc4ccccc4C3)ccc21	4	-0.7	-4	3	1	6
CC1=NN(CCC#N)C(=O)/C1=C/c1ccc(N(C)C)cc1	-4	0.4	-3	-2	-1	-14
CNC(=O)COc1ccccc1C(=O)Nc1ccc2c(c1)oc1ccccc12	-1	2.1	-27	12	-10	0
CCCOc1ccc(F)cc1-c1cc(C(=O)NCc2ccc(F)cc2)[nH]n1	-9	0.4	.	.	0	6
CCCS(=O)(=O)c1nc(S(=O)(=O)c2ccc(C)cc2)c(N2CCN(CC)CC2)s1	-34	0.4	-10	17	2	15
O=C(O)C(=Cc1ccccc1[N+](=O)[O-])c1ccccc1	0	0.8	-11	.	-1	8
CN1C(=O)N(C)C(c2ccccc2Cl)C2=C1CC(C)(C)CC2=O (configuration not stated)	0	0.9	15	23	6	-9
COc1ccccc1CNC(=O)Cn1c(=O)c2cccn2c2cccnc21	-8	-0.5	-5	26	-20	3
CN(C(=O)CSc1nnc(-c2ccccc2F)n1N)C1CCCCC1	-8	3.8	4	5	7	-1
Cc1c(C(=O)N2CCOCC2)oc2c1C(=O)CC(C)(C)C2	-1	0.6	9	-15	6	1
COc1ccc(Br)cc1CNC(=O)CCc1nc(-c2ccccc2F)no1	-6	2.7	11	-18	3	-3
O=C(C1CC1)N1N=C(c2ccc(Br)cc2)CC1(O)C(F)(F)F (configuration not stated)	-6	0.6	33	-3	.	7
CCn1cc(CN2CCC(n3nccc3NC(=O)c3cccc(F)c3)CC2)c(C)n1	-10	0.6	4	6	0	4

Shown with two lines to a compound: 6 of the compounds above.
Results follow in this order: D2 PAM	TRPML1 ag	TRPML1 blocker	TRPV1 potentiator	CtBP-E1A blk	Six1-Eya2 blk
CNC(=O)COc1ccccc1C(=O)Nc1ccc2c(c1)oc1ccccc12
    -1	2.1	-27	12	-10	0
CCCOc1ccc(F)cc1-c1cc(C(=O)NCc2ccc(F)cc2)[nH]n1
    -9	0.4	.	.	0	6
CCCS(=O)(=O)c1nc(S(=O)(=O)c2ccc(C)cc2)c(N2CCN(CC)CC2)s1
    -34	0.4	-10	17	2	15
O=C(O)C(=Cc1ccccc1[N+](=O)[O-])c1ccccc1
    0	0.8	-11	.	-1	8
CN1C(=O)N(C)C(c2ccccc2Cl)C2=C1CC(C)(C)CC2=O (configuration not stated)
    0	0.9	15	23	6	-9
COc1ccccc1CNC(=O)Cn1c(=O)c2cccn2c2cccnc21
    -8	-0.5	-5	26	-20	3

The listing continues:
Molecule	D2 PAM	TRPML1 ag	TRPML1 blocker	TRPV1 potentiator	CtBP-E1A blk	Six1-Eya2 blk
COC(=O)c1c(NC(=O)c2ccccc2)sc2c1CC(C)(C)OC2	2	0.3	9	1	8	7
CCc1ccc(OS(=O)(=O)c2cn(C)c(=O)n(C)c2=O)cc1	-2	-0.2	-4	1	4	1
N#Cc1cccnc1N1CCN(C(=O)c2cccc3c2C(=O)c2ccc(Cl)cc2S3(=O)=O)CC1	10	0.1	24	21	-19	-25
O=C(CSc1nncn1-c1ccccc1)Nc1ccc(F)cc1F	-3	0.5	-11	-2	0	11
Cc1ccc(S(=O)(=O)N(C)CC(=O)O/N=C(\N)c2cccc(Br)c2)cc1	-5	-0.5	-11	?	24	43
Cc1cnc(C(=O)N(c2ccccc2)C(c2ccccc2)c2nc3ccccc3[nH]2)cn1 (configuration not stated)	2	-0.7	.	.	3	-2
O=C(NCc1ccc(F)cc1)C1CCCN1C(=O)Nc1ccccc1 (configuration not stated)	-3	0.0	-9	13	-15	15
COC(=O)c1sccc1NS(=O)(=O)c1ccc(F)cc1F	2	-0.5	-2	-6	.	-3
COC(=O)[C@H](Cc1ccccc1)NC(=O)/C=C/[C@H]1O[C@@H](n2cc(C)c(=O)[nH]c2=O)C[C@@H]1O	-8	-0.1	-14	.	5	0
O=C(CCc1ccccc1)N=C1SC2CS(=O)(=O)CC2N1c1ccccc1F (configuration not stated)	-13	-0.6	-7	6	1	4
N#C/C(=C\c1ccc(-c2cccc(C(F)(F)F)c2)o1)C(=O)Nn1cnnc1	-20	-0.1	-4	4	-1	?
COc1cccc(NC(=O)COC(=O)CCCC2=NS(=O)(=O)c3ccccc3N2)c1	-24	0.2	-1	?	-10	0
COc1ccccc1NC(=S)NN1CCN(C)CC1	-25	0.3	12	11	15	6
CC[n+]1c(/C=C/Nc2ccccc2)oc2ccc(OC)cc21	-8	0.5	8	13	10	-4
CSc1ccccc1OCc1cc(C(=O)N2CCSCC2)no1	10	1.3	-19	-11	-2	0
CNC(=S)N1CCN=C1Nc1nc(C)cc(C)n1	-9	-0.2	2	5	4	4
COC(=O)c1ccccc1NC(=O)CSc1nc(O)c(-c2ccccc2)c(=O)[nH]1	-2	-1.6	1	?	7	3
CCC(C)c1ccccc1NC(=O)COC(=O)c1ccc(N2CCCC2)c([N+](=O)[O-])c1 (configuration not stated)	-5	0.6	-1	?	-7	-15
O=C(NCc1ccncc1)[C@@H]1CCCN1C(=O)[C@@H]1CCCN1	.	0.3	.	.	3	1
O=C(CSc1nnc(CN2CCOCC2)n1-c1ccccc1)Nc1ccc(Cl)cc1	-10	1.0	-1	8	2	3
CCOC(=O)CN1C(=O)N[C@H](c2ccc(Br)cc2)C(C(C)=O)=C1C	-7	0.8	-14	1	5	0
O=C(NNC(=O)c1cc(-c2ccncc2)nc2ccccc12)c1ccccc1F	-23	2.4	5	13	-12	-15
CCCCN(C)C(=O)C1CCN(c2ccc(S(=O)(=O)N3CCOCC3)cc2[N+](=O)[O-])CC1	1	-0.1	-16	5	5	-7
COc1cc(CN2CCC(n3nccc3NC(=O)CCCc3ccccc3)CC2)ccc1F	2	6.1	-3	-2	.	20
COc1cc(CNC(=O)C2CCCN2S(=O)(=O)c2ccccc2)cc(OC)c1OC (configuration not stated)	-1	1.3	5	2	-1	10
CCOC(=O)N1CCC(NC(=O)C2CCN(C(=O)c3cc4sccc4n3CC)CC2)CC1	5	0.9	-8	5	4	0
O=C(O)[C@H](Cc1ccccc1)NC(=O)N1CCOCC1	7	0.0	-6	3	6	6
O=S(=O)(c1ccc(OCC(O)CN2CCN(c3ccccc3Cl)CC2)cc1)N1CCOCC1 (configuration not stated)	-5	2.7	0	?	7	0
CCOn1c(=O)c(-c2cccc3ccccc23)[n+]([O-])c2ccccc21	-3	0.2	0	3	.	0
Cc1cccc(CCNS(=O)(=O)c2ccc3c(c2)n(C)c(=O)c(=O)n3C)c1	-2	-0.4	3	5	-1	-6
COc1cccc(NC(=O)N2CCCC2C(=O)NC2CCCC2)c1 (configuration not stated)	-3	0.2	-14	0	-24	-5
N/C(=N\OC(=O)c1ccc(Br)cc1)c1ccncc1	52*	-1.0	-2	-14	8	-2
Cc1ccccc1-n1c(SCC(=O)NCc2cccs2)nc2ccccc2c1=O	1	1.5	3	-15	-9	3
NC(Cc1ccc(C(F)(F)F)cc1)c1csc(NC(=O)Nc2ccccc2)n1 (configuration not stated)	14	1.9	.	.	2	4
CCOC(=O)C(C#N)=C1CCN(Cc2ccccc2)CC1	-16	0.2	3	5	.	-1
O=C1NC(Nc2nccs2)(C(F)(F)F)C(=O)N1CCc1ccccc1 (configuration not stated)	-2	-0.3	-10	0	-3	-14
CCN(CC(=O)Nc1cccc(OC)c1)C(=O)C1CC(=O)N(Cc2ccccc2Cl)C1 (configuration not stated)	-30	0.1	-12	.	-11	6
Cc1ccc(S(=O)(=O)c2cn(C)c3cc(N4CCN(C)CC4)c(F)cc3c2=O)cc1	-9	-0.7&-0.1	10&3	6	0	-2
C[C@@H]1O[C@H](C2CCCC2)Cc2[nH]c(=S)[nH]c(=O)c21	.	-0.1	.	.	1	-1
Cc1c(C(=O)N(Cc2nccn2C)C(C)C)oc2c(F)cccc12	-1	-0.4	-12	-10	0	-16
CN(C)c1ccc(C(=O)Nc2cccc(S(=O)(=O)NC3=NCCCCC3)c2)cc1	-2	-0.4	15	?	.	?
COC(=O)c1ccc(CSc2ccc3nnc(-c4ccccn4)n3n2)o1	2	-0.7	35	6	-11	?
CN(C(=O)c1cccc(NC(=O)Cc2ccc([N+](=O)[O-])cc2)c1)C1CC1	-9	0.2	19	.	.	-9
CCCOC1CCCN(C(=O)CCCn2nnnc2CN2CCOCC2)C1 (configuration not stated)	-12	-0.3	0	-12	-1	-1
CCN(CC)C(=O)CSc1nnc([C@@H](N)Cc2ccccc2)o1	-4	1.8	10	-8	4	5
O=C(Nc1ccc(S(=O)(=O)Nc2ccccc2)cc1)c1ccc(CN2CCOCC2)cc1	5	2.8	-15	-1	3	-9
